High-throughput results as filed in PubChem.
MLL AF4-AF9 inh: blocks AF4 peptide binding to human AF9; P42568; AlphaScreen, biotin-AF4 peptide binding to FLAG-AF9; inhibition, % at 10 µM; 350,000 tested, 0.47% active; AID 651704;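 active = every replicate reaching a set inhibition limit, whatever the replicate mean, cut at about 25% in these data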;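 note: 0% = plate neutral control median and 100% = total signal loss; the record names both 10 and 1 µM as test concentration; the first replicate is given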
Target sequence (P42568 whole entry, looked up): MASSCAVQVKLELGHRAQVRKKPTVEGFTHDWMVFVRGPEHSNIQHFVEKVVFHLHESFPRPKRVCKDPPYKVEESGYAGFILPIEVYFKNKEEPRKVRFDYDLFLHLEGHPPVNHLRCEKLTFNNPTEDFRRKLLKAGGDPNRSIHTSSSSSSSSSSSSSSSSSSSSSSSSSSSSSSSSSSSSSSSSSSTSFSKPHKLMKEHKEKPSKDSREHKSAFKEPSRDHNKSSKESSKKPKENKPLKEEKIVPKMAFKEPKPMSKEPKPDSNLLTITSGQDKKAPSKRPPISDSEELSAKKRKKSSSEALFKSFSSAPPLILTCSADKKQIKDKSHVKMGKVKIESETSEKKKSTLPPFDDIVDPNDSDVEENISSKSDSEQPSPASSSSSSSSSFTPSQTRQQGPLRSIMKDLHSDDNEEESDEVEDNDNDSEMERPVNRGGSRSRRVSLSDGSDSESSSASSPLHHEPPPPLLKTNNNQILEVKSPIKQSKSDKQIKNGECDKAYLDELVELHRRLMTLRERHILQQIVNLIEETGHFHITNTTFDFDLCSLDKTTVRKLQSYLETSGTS
* hit, by the source's call.

SMILES	MLL AF4-AF9 inh
C[C@@H]1CN([C@@H](C)CO)C(=O)Cc2cc(NC(=O)Nc3ccc(F)cc3)ccc2O[C@H]1CN(C)S(=O)(=O)c1ccc(Cl)cc1	-0.3
CCCNC(=O)N1[C@@H](CO)[C@H](c2ccccc2)C12CN(C(=O)CC1CC1)C2	0.3
COc1ccc(NC(=O)Nc2ccc3c(c2)C(=O)N([C@@H](C)CO)C[C@@H](C)[C@H](CN(C)Cc2ccncc2)OCCCC[C@@H](C)O3)cc1	0.9
COc1ccc(S(=O)(=O)N(C)C[C@H]2Oc3ncc(-c4ccncc4)cc3C(=O)N([C@H](C)CO)C[C@@H]2C)cc1	-4.4
O=C(Cc1ccccc1)N1C[C@@H]2[C@H](c3ccccc31)[C@@H](CO)N2C(=O)Cc1ccccc1	-0.8
C[C@@H]1CN([C@H](C)CO)C(=O)c2cc(NS(C)(=O)=O)ccc2O[C@H]1CN(C)Cc1ccc(Oc2ccccc2)cc1	-7.0
C[C@H]1CN([C@@H](C)CO)C(=O)c2cccc(NC(=O)Nc3ccc(F)cc3)c2O[C@@H]1CN(C)Cc1ccccc1	-0.5
C[C@@H]1CCCCO[C@H](CN(C)C(=O)c2ccncc2)[C@H](C)CN([C@H](C)CO)C(=O)c2cc(NC(=O)c3ccccc3)ccc2O1	0.9
O=C(C[C@H]1CC[C@H]2[C@@H](COC[C@H](O)CN2C(=O)Nc2ccccc2)O1)NCc1ccncn1	0.3
COc1cccc(-c2cccc3c2NC(=O)C3(C)Cc2cccc(F)c2)c1 (stereo not given)	-4.8
CNc1ccc(-c2cccc(C#N)c2)cn1	-3.1
CC1(C(=O)Nc2cccc(Oc3ccccc3)c2)CCN1Cc1ccccc1Cl (stereo not given)	-3.5
O=C(c1cccc(F)c1)N1CC2(C1)[C@H](c1ccccc1)[C@@H](CO)N2C(=O)C1CCOCC1	-2.4
CN1CCN(C(=O)C[C@@H]2CC[C@@H]3[C@H](COC[C@@H](O)CN3C(=O)Nc3cc(Cl)cc(Cl)c3)O2)CC1	-1.7
CO[C@@H]1CN(C)C(=O)c2ccc(NC(=O)Nc3ccc(C(F)(F)F)cc3)cc2OC[C@@H](C)NC[C@@H]1C	8.3
C[C@H]1CN([C@@H](C)CO)C(=O)c2cc(C#CC3CCCCC3)cnc2O[C@H]1CN(C)S(=O)(=O)c1cccc(F)c1	4.4
Fc1cccc(Cc2c(-c3cccc(Br)c3)nc3c(Cl)cc(C(F)(F)F)cn23)c1	-1.2
CN1CCN(C(=O)C[C@H]2C[C@@H]3c4cc(NC(=O)Nc5ccc(C(F)(F)F)cc5)ccc4O[C@@H]3[C@H](CO)O2)CC1	6.8
COCCN(C(=O)c1ccc(N(C)S(=O)(=O)c2ccc(C)cc2)cc1)c1c(N)n(CC(C)C)c(=O)[nH]c1=O	-2.9
COc1ccc([Si](C)(C)[C@@H]2[C@@H](CCO)O[C@]3(C(=O)N(Cc4ccccc4)c4ccc(N5C(=O)c6cccc7cccc5c67)cc43)[C@H]2C)cc1	-0.4
O=C(N[C@H]1C=C[C@@H](CC(=O)N2CCCCC2)O[C@H]1CO)c1cccc(F)c1	-22
CNc1ccc(-c2cccc(CO)c2)cn1	-1.4
C[C@H](CO)N1C[C@H](C)[C@H](CN(C)C(=O)c2cccc(F)c2)Oc2cc(-c3ccncc3)ccc2S1(=O)=O	1.0
COc1ccc(-c2nc3c4ccccc4ccn3c2CC2CCCCC2)cc1OC	2.5
CC(C)[C@@H](C)NC(=O)N(C)C[C@@H]1OCc2ccccc2-c2ccccc2C(=O)N([C@H](C)CO)C[C@@H]1C	-9.0
COc1ccc2c3c(n(C)c2c1)[C@@H](CO)N(C(=O)CN(C)C)CC31CCN(C(=O)C2CCC2)CC1	-6.1
Cc1noc(C)c1C(=O)N1CCC1(C)C(=O)NS(=O)(=O)c1ccccc1C(F)(F)F (stereo not given)	0.0
C[C@@H]1CN([C@H](C)CO)C(=O)CCCn2cc(nn2)CO[C@@H]1CN(C)S(=O)(=O)c1cn(C)cn1	-2.0
O=C(C1CCOCC1)N1CC[C@@H]2[C@H]1c1cc(-c3ccc(F)cc3)ccc1N[C@@H]2CO	0.2
CCN(C[C@@H]1[C@H](c2ccccc2)[C@@H](CO)N1CC1CC1)C(=O)c1ccccn1	-2.3
O=C(C[C@@H]1CC[C@@H]2[C@H](COC[C@H](O)CN2CC2CCCCC2)O1)NCC1CC1	-4.3
C[C@H](CO)N1C[C@H](C)[C@@H](CN(C)C(=O)C2CCC2)Oc2ncc(-c3ccccc3F)cc2C1=O	-2.6
COc1ccc(S(=O)(=O)Nc2cccc3c2O[C@@H](CN(C)Cc2ccncc2)[C@@H](C)CN([C@H](C)CO)C3=O)cc1	0.2
Cc1ccc([C@H]2N[C@]3(CCCN(CC4CCCCC4)C3=O)[C@H]3C(=O)N(C)C(=O)[C@@H]23)cc1	1.1
O=C(C[C@H]1CC[C@@H]2[C@H](COC[C@H](O)CN2Cc2cccc(C(F)(F)F)c2)O1)NCCc1ccncc1	-1.5
CC(C)CC#Cc1cnc2c(c1)C(=O)N([C@@H](C)CO)C[C@H](C)[C@@H](CN(C)Cc1cncnc1)O2	2.3
COc1ccc2c3c([nH]c2c1)[C@H](CO)N(C(=O)Nc1cccc(F)c1)CC31CN(CC2CC2)C1	29*
C[C@@H]1CN([C@H](C)CO)C(=O)c2ccccc2-c2ccccc2CO[C@@H]1CN(C)S(=O)(=O)CC(F)(F)F	-4.4
C[C@@H]1CCCCO[C@H](CN(C)C(=O)Nc2cccc3ccccc23)[C@@H](C)CN([C@@H](C)CO)C(=O)c2cc(NC(=O)Cc3ccccc3)ccc2O1	7.0
C[C@H]1CCCCO[C@H](CN(C)Cc2ccncc2)[C@@H](C)CN([C@@H](C)CO)C(=O)c2cc(NS(=O)(=O)c3cccs3)ccc2O1	-0.2
CCN1[C@@H]2Cn3c(ccc(-c4ccccc4F)c3=O)[C@H]1[C@@H](C(=O)NCc1ccccc1)[C@@H]2CO	-1.1
O=C(Nc1ccc(F)c(Cl)c1)c1cc(C2CCCN(C(=O)CCc3ccccc3)C2)on1 (stereo not given)	-2.8
Cc1noc(C)c1NC(=O)N(C)C[C@H]1OCCCC[C@@H](C)Oc2ccc(NC(=O)Cc3ccccc3)cc2C(=O)N([C@H](C)CO)C[C@H]1C	-3.1
Cc1ccc(S(=O)(=O)Nc2ccc3c(c2)CC(=O)N([C@H](C)CO)C[C@H](C)[C@H](CN(C)S(=O)(=O)c2cccs2)O3)cc1	-13
CCCN1[C@H](C(=O)NCCCN(C)C)[C@@H](CO)[C@@H]2Cn3c(ccc(C4=CCCC4)c3=O)[C@@H]21	7.9
Cc1ccccc1-c1ccccc1[C@H]1[C@@H](C#N)N(C(=O)c2ccc(F)cc2)[C@@H]1CO	-1.2
C[C@H]1CN([C@@H](C)CO)S(=O)(=O)c2ccc(C#CCN(C)C)cc2O[C@@H]1CN(C)C(=O)c1ccccc1F	2.3
CO[C@@H]1CN(C)C(=O)c2ccc(NC(=O)Nc3cc(Cl)cc(Cl)c3)cc2OC[C@H](C)NC[C@H]1C	7.4
CC(C)C#Cc1cnc2c(c1)C(=O)N([C@H](C)CO)C[C@@H](C)[C@H](CN(C)C(=O)C1CCC1)O2	-2.1
O=C(NCCc1ccccc1)c1[nH]c(C(F)(F)F)nc1-c1ccccc1	-1.9
COc1ccc(NC(=O)Nc2cccc3c2O[C@H](CN(C)CC2CC2)[C@@H](C)CN([C@H](C)CO)C3=O)cc1	6.5
O=S(=O)(NCCS(=O)(=O)N1CCN(c2ccc(F)cc2)CC1)c1ccccc1	-5.8
C[C@H]1CN([C@@H](C)CO)C(=O)Cc2cc(NC(=O)Nc3cccc4ccccc34)ccc2O[C@H]1CN(C)Cc1ccccc1	5.4
COc1ccc(S(=O)(=O)N(C)C[C@H]2Oc3c(NC(=O)CCCCCC(=O)Nc4ccccc4N)cccc3C(=O)N([C@H](C)CO)C[C@@H]2C)cc1	-1.7
C[C@@H]1CN([C@@H](C)CO)C(=O)c2cccc(N(C)C)c2O[C@@H]1CN(C)Cc1ccc(C(F)(F)F)cc1	0.1
C[C@H](O)C#Cc1ccc2c(c1)O[C@@H](CN(C)C(=O)Cc1ccccn1)[C@@H](C)CN([C@@H](C)CO)S2(=O)=O	-3.5
CN1CCN(C(=O)C[C@H]2C[C@@H]3c4cc(NC(=O)C5CCOCC5)ccc4O[C@@H]3[C@H](CO)O2)CC1	0.2
COCc1cn(CC[C@H]2CC[C@H](NC(=O)CCN3CCCCC3)[C@H](CO)O2)nn1	-10
C[C@H](O)C#Cc1cnc2c(c1)C(=O)N([C@H](C)CO)C[C@H](C)[C@@H](CN(C)CC1CCCC1)O2	-2.7
COC(=O)[C@@]1(Sc2ccc(C)cc2)CC(=O)N[C@@H]1c1ccccc1	-5.2

For reference, part of the list above:
SMILES	MLL AF4-AF9 inh
C[C@H]1CN([C@@H](C)CO)S(=O)(=O)c2ccc(C#CCN(C)C)cc2O[C@@H]1CN(C)C(=O)c1ccccc1F	2.3
CO[C@@H]1CN(C)C(=O)c2ccc(NC(=O)Nc3cc(Cl)cc(Cl)c3)cc2OC[C@H](C)NC[C@H]1C	7.4
CC(C)C#Cc1cnc2c(c1)C(=O)N([C@H](C)CO)C[C@@H](C)[C@H](CN(C)C(=O)C1CCC1)O2	-2.1
O=C(NCCc1ccccc1)c1[nH]c(C(F)(F)F)nc1-c1ccccc1	-1.9
COc1ccc(NC(=O)Nc2cccc3c2O[C@H](CN(C)CC2CC2)[C@@H](C)CN([C@H](C)CO)C3=O)cc1	6.5
O=S(=O)(NCCS(=O)(=O)N1CCN(c2ccc(F)cc2)CC1)c1ccccc1	-5.8
C[C@H]1CN([C@@H](C)CO)C(=O)Cc2cc(NC(=O)Nc3cccc4ccccc34)ccc2O[C@H]1CN(C)Cc1ccccc1	5.4
COc1ccc(S(=O)(=O)N(C)C[C@H]2Oc3c(NC(=O)CCCCCC(=O)Nc4ccccc4N)cccc3C(=O)N([C@H](C)CO)C[C@@H]2C)cc1	-1.7
C[C@@H]1CN([C@@H](C)CO)C(=O)c2cccc(N(C)C)c2O[C@@H]1CN(C)Cc1ccc(C(F)(F)F)cc1	0.1
C[C@H](O)C#Cc1ccc2c(c1)O[C@@H](CN(C)C(=O)Cc1ccccn1)[C@@H](C)CN([C@@H](C)CO)S2(=O)=O	-3.5
CN1CCN(C(=O)C[C@H]2C[C@@H]3c4cc(NC(=O)C5CCOCC5)ccc4O[C@@H]3[C@H](CO)O2)CC1	0.2

(cont.)
SMILES	MLL AF4-AF9 inh
C[C@@H]1CN([C@H](C)CO)S(=O)(=O)c2ccc(C#CC(C)(C)O)cc2O[C@H]1CN(C)Cc1ccc(-c2ccccc2)cc1	0.3
C[C@H]1CN([C@@H](C)CO)C(=O)Cc2cc(NC(=O)Nc3ccc(F)cc3)ccc2O[C@H]1CN(C)C(=O)Nc1ccccc1	-4.6
COCCNc1nc(Oc2ccc(C(N)=O)cc2)c2sccc2n1	-4.0
COc1ccc(NC(=O)N2C[C@@H](O)COC[C@@H]3O[C@H](CC(=O)N4CCOCC4)CC[C@H]32)cc1	0.9
C[C@@H]1CN([C@@H](C)CO)C(=O)Cc2cc(NC(=O)Nc3ccccc3)ccc2O[C@@H]1CN(C)Cc1ccc(Oc2ccccc2)cc1	-1.3
C[C@@H]1CN([C@@H](C)CO)S(=O)(=O)c2ccc(C3=CCCCC3)cc2O[C@@H]1CN(C)C(=O)CN(C)C	-3.8
Cc1ccc(S(=O)(=O)N[C@H]2CC[C@@H](CCNC(=O)C3CCC3)O[C@H]2CO)cc1	-3.0
CCC(=O)N1C[C@H](C)[C@H](OC)CN(C)C(=O)c2cc(NC(=O)Nc3ccccc3)ccc2OC[C@H]1C	4.6
C[C@H]1CN([C@@H](C)CO)C(=O)Cc2cc(NC(=O)C3CC3)ccc2O[C@@H]1CN(C)Cc1ccc(C(=O)Nc2ccccc2N)cc1	-1.1
CC(C)NC(=O)c1cc(C2CCCCN2S(=O)(=O)c2cccc3cccnc23)on1 (stereo not given)	-2.2
CNC[C@@H]1Oc2ccc(NC(=O)NC(C)C)cc2CC(=O)N([C@@H](C)CO)C[C@H]1C	-0.9
C=CC1CN(S(=O)(=O)c2ccc(Br)cc2)C(=O)N1c1ccc(Br)cc1 (stereo not given)	-1.2
CCCC(=O)N1CCCC1(C)C(=O)Nc1ccc2nc(C)ccc2c1 (stereo not given)	0.4
O=C(C[C@H]1CC[C@@H]2[C@H](COC[C@@H](O)CN2Cc2ccccc2)O1)N1CCOCC1	-2.3
C[C@H](c1ccccc1)N1C[C@H](COCc2ccccc2)Oc2cc(N3CCC[C@@H]3CO)ccc2S1(=O)=O	-2.9
C[C@@H]1CN([C@H](C)CO)C(=O)c2cc(N(C)C)ccc2O[C@@H](C)CCCCO[C@H]1CN(C)Cc1ccc(C(=O)O)cc1	-1.8
C[C@@H]1CCCCO[C@@H](CN(C)Cc2ccc(Cl)c(Cl)c2)[C@@H](C)CN([C@H](C)CO)C(=O)c2cc(NC(=O)CCCCCC(=O)Nc3ccccc3N)ccc2O1	-1.5
C/C=C/c1ccc([C@H]2[C@@H](CNCC)N(c3nc(C)c(C)s3)[C@H]2CO)cc1	7.2
CCCC(=O)Nc1ccc2c(c1)OC[C@H](C)N(C(=O)C1CCCC1)C[C@H](C)[C@@H](OC)CN(C)C2=O	-2.1
C[C@@H](NC(=O)C[C@H]1CC[C@H]2[C@@H](COC[C@H](O)CN2C(=O)Nc2cccc(Cl)c2)O1)c1ccccc1	0.7
O=C(C[C@@H]1CC[C@@H](NC(=O)Nc2cc(F)ccc2F)[C@@H](CO)O1)Nc1ccccc1	-0.3
COc1ccc(-c2ccc([C@@H]3[C@@H](C#N)N(C(=O)C4CC4)[C@H]3CO)cc2)cc1	-0.4
O=C(Cc1ccncc1)NCC[C@@H]1CC[C@H](NC(=O)C2CCOCC2)[C@H](CO)O1	0.3
COc1cccc(S(=O)(=O)N[C@@H]2CC[C@@H](CCn3cc(-c4ccccc4)nn3)O[C@@H]2CO)c1	0.5
C[C@H](CO)N1C[C@H](C)[C@H](CN(C)C)OCCCC[C@H](C)Oc2ccc(NC(=O)C3CCCCC3)cc2C1=O	-0.2
CC(C)C1OC(CCc2ccccc2)Cc2[nH][nH]c(=O)c21 (stereo not given)	1.6
O=C(C[C@H]1C=C[C@H](NS(=O)(=O)c2ccccc2)[C@H](CO)O1)N1CCc2ccccc2C1	-7.0

The list is partial; count on the stated rates, not on these rows.
